# Cdc42 wt GTP – changes GTP binding to wildtype human Cdc42; P60953; GST-Cdc42 beads, Bodipy-GTP binding, flow cytometry; actives lie on both sides; percent activity (GTP binding), % at 10 µM; 0.2% of 190,000 active;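 active = percent activity GTP binding at least 20 points away from the 100% baseline, either down as inhibitor or up as activator; inconclusive = compound flagged as likely green fluorescent from well-wide comparison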;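 note: median bead fluorescence of bound Bodipy-FL-GTP at 100 nM; 0% = excess unlabeled GTP control and 100% = no compound control; below 100% means less GTP binding so inhibitor and above means activator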
# Target sequence (P60953 whole entry, looked up): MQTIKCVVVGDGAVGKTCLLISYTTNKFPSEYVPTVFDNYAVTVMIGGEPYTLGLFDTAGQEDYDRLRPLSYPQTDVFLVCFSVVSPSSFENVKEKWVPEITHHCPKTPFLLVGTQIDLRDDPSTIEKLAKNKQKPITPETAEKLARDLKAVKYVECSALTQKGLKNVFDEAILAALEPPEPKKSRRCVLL
# Pf gametocyte – P. falciparum stage V gametocyte viability inhibition; 0.065% of 150,000 active; P. falciparum stage V gametocytes, ATP luminescence, 24 h; inhibition, % at 10.9 µM;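 active = inhibition above the mean plus 3 SD of compounds within the control limits, set per campaign, cut at about 38% in these data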;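 note: 0% = DMSO wells and 100% = medium only without gametocytes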
# GSH fluor – compound fluoresces at 488/530 nm on GSH beads; AID 1776; fluorescence (KMESF) at 10 µM; GSH beads flow cytometry, compound fluorescence 488/530 nm; hits give high values; 0.25% of 190,000 active; in the data active = fluorescence above about 89;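 note: glutathione beads carrying GST-tagged Bcl family fusion proteins plus one bare bead set; values are compound well signal with DMSO vehicle wells as background; inactives centre near 16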
# Avidin bead fluor – avidin bead compound fluorescence profile. AID 1775. 0.38% of 220,000 active. Avidin beads, compound fluorescence 488/530 nm, flow cytometry; hits give high values. fluorescence (KMESF) at 10 µM; in the data active = fluorescence above about 47; note: inactives centre near 10
# Rac1 wt modul – modulators of human Rac1 wildtype GTP binding; P63000; GST-Rac1 beads, fluorescent GTP binding, flow cytometry; actives lie on both sides; 0 = cold GTP competed, 100 = untreated; GTP binding activity (% of control), % at 10 µM; 0.27% of 190,000 active;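 active = GTP binding activity at least 20 points away from the 100% control level, either lower or higher; inconclusive = compound flagged as likely green fluorescent, judged across all proteins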
# Rab7 wt GTP bind – modulators of GTP binding to dog Rab7 wildtype GTPase; 0.055% of 190,000 active; GST-Rab7 beads, fluorescent GTP binding, flow cytometry; actives lie on both sides; untreated = 100%, excess cold GTP = 0%; AID 758; GTP binding activity (percent of control), % at 10 µM;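 active = fluorescent GTP binding to Rab7 beads changed by at least 20 points from the 100% baseline, either direction, mostly lower; inconclusive = compound itself probably fluorescent, or too few beads counted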;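 note: median green fluorescence of bound Bodipy-FL-GTP per Rab7 bead population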
# Rac1 act GTP bind – alters GTP binding to activated mutant human Rac1 | percent activity (GTP binding), % at 10 µM | AID 764 | GST-Rac1 activated beads, fluorescent GTP binding, flow cytometry; actives lie on both sides; 100% means binding = to untreated wells | 0.11% of 190,000 active | P63000;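 active = GTP binding at least 20 percentage points away from the 100% baseline, in either direction, so actives lie on both sides; inconclusive = Compound likely fluorescent itself, or too few beads counted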
# HRas wt GTP – human HRas wildtype GTP binding, change in either direction | GST-Ras wt beads, Bodipy-FL-GTP binding, flow cytometry; actives lie on both sides | GTP binding activity, % at 10 µM | 0.14% of 190,000 active;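 active = GTP binding activity at least 20% away from the 100% baseline, either lowered as inhibitor or raised as activator; inconclusive = flagged as likely green fluorescent, judged across all proteins in the well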;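 note: 0% = unlabeled GTP competition control and 100% = no-compound control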
# Target sequence (P01112 whole entry, looked up): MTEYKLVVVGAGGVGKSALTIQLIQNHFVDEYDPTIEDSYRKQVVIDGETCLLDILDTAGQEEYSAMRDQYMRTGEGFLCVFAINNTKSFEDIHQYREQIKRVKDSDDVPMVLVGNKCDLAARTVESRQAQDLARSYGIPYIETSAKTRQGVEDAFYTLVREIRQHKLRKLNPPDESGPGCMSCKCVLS
# Rab2A wt mod – changes GTP binding to wildtype dog Rab2A, up or down; GST-Rab2 wt beads, Bodipy-GTP binding, flow cytometry; GTP binding activity, % at 10 µM; 0.19% of 190,000 active; AID 760;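 active = GTP binding activity at least 20 points away from 100%, either lowered or raised; inconclusive = signal likely due to the compound's own green fluorescence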;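 note: 0% = beads with excess unlabeled GTP and 100% = no-compound control corrected for plate trend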
# * hit, by the source's call; ? = inconclusive; nt = not tested or not shown. An excerpt; count on the stated rates, not on these rows.
# Each structure is followed by: HRas wt GTP	Rac1 wt modul	Rac1 act GTP bind	Rab7 wt GTP bind	Rab2A wt mod	GSH fluor	Cdc42 wt GTP	Pf gametocyte	Avidin bead fluor
CCCN1C(=O)c2cc(C(=O)O)ccc2C1O (stereo not given)
    102	103	99	98	102	27	103	nt	7
CN1c2ccccc2Oc2c(c(=O)n(C)c(=O)n2C)C1c1cccc([N+](=O)[O-])c1 (stereo not given)
    102	101	98	100	98	9	102	-49	29
COc1ccc(/C=N/Nc2nc(-c3ccc(Cl)cc3)cc(C(F)(F)F)n2)cc1OC
    101	104	100	101	100	11	97	-6	12
N#C/C(=C\c1ccc(-c2ccccc2[N+](=O)[O-])o1)C(=O)Nc1nc(-c2cccs2)cs1
    93	94	91	96	91	7	96	16	11
CCCc1nc(-c2cc3cc(C)ccc3[nH]c2=O)no1
    nt	nt	nt	nt	nt	nt	nt	15	3
CCOC(=O)c1cc(C#N)c(N2CCN(C)CC2)nc1-c1ccccc1
    101	100	98	102	102	13	101	3	10
CCOCC(=O)Nc1cc(C(=O)Nc2ccc(F)cc2)ccc1Cl
    101	98	95	102	99	25	96	nt	11
Cc1nn(-c2ccccc2)c(N)c1C1(O)C(=O)Nc2ccccc21 (stereo not given)
    nt	nt	nt	nt	nt	nt	nt	-32	5
CCOc1ccc2nc(Nc3nc4ccc(NC(C)=O)cc4s3)sc2c1
    97	101	99	96	95	4	99	nt	13
CC(C)CNC(=O)C1CCN(c2ccc(S(=O)(=O)N3CCOCC3)cc2Cl)CC1
    98	101	100	94	99	46	99	nt	6
O=C(OCc1ccco1)c1cccnc1
    100	103	100	100	99	13	101	4	9
CCCCOc1ccccc1-c1cc(C(=O)O)[nH]n1
    99	97	95	97	97	6	98	nt	18
Nc1ncnc(Nc2ccc(F)c(Cl)c2)n1
    nt	nt	nt	nt	nt	nt	nt	-4	6
O=C1CN(CC(=O)Nc2cccc(Cl)c2Cl)c2ccccc2N1
    ?	?	?	?	?	7	?	2	14
Cc1sc(NC(=O)C2CC(Cl)=CCC2C(=O)O)c(C#N)c1C (stereo not given)
    92	90	89	98	90	22	91	3	10
CC(C(=O)NC(C)(C)C)N(Cc1cccs1)C(=O)CCN1CCc2ccccc21 (stereo not given)
    99	99	96	108	99	21	97	18	6
CCOc1ccc(N/C(SCc2cccc([N+](=O)[O-])c2)=C(/C#N)C(N)=O)cc1
    99	101	96	95	96	14	99	-1	13
CC1CC(C)CN(C(=O)CSc2nc(Cc3cccs3)nc3ccccc23)C1 (stereo not given)
    96	97	94	95	93	45	95	nt	7
CC(C)(C)NC(=O)CSc1nc(O)cc(=O)[nH]1
    100	106	99	103	99	9	97	-1	2
CC1=C(C(=O)Nc2ccccc2)C(c2cccs2)n2nnnc2N1 (stereo not given)
    100	102	99	104	101	15	101	18	11
O=C1CC(c2ccc(Cl)cc2)CC(=O)C1CS(=O)(=O)c1ccccc1 (stereo not given)
    92	96	92	93	92	13	96	-16	13
COc1cc(/C=N/NC(N)=S)ccc1OCC(=O)N1CCOCC1
    98	100	100	98	98	15	102	13	7
CCOc1cccc2sc(Nc3nc4ccc(NC(C)=O)cc4s3)nc12
    99	99	98	95	98	9	96	-1	14
COc1ccc(/C(C)=N\Nc2nc(-c3ccc(Cl)cc3)cc(C(F)(F)F)n2)cc1OC
    101	105	99	100	100	11	104	7	13
CC(=O)c1cc(C#N)c(N2CCCCC2)nc1C
    92	97	92	97	90	15	99	-5	8
COc1ccc(NC(C)=O)cc1NC(C)C(=O)Nc1ccccc1F (stereo not given)
    99	101	97	94	98	9	100	7	8
COc1ccc(NC(=O)CC2C(=O)N(Cc3ccco3)C(=S)N2C(C)C)cc1 (stereo not given)
    98	100	99	100	98	22	97	15	8
COc1ccc(NC(C)=O)cc1NC(C)C(=O)Nc1cccc2ccccc12 (stereo not given)
    100	103	98	101	101	39	99	nt	12
Cn1c(C(=O)NCCC2=CCCCC2)cc2c(=O)n3ccccc3nc21
    104	105	100	104	103	13	105	-13	35
CCOC(=O)c1cc2sc(C)cc2n1CC(=O)N1CCN(C(=O)c2ccco2)CC1
    100	100	100	99	101	14	100	nt	32

# A second format for some results above:
> COc1ccc(NC(=O)CC2C(=O)N(Cc3ccco3)C(=S)N2C(C)C)cc1 (stereo not given)
  HRas wt GTP: 98
  Rac1 wt modul: 100
  Rac1 act GTP bind: 99
  Rab7 wt GTP bind: 100
  Rab2A wt mod: 98
  GSH fluor: 22
  Cdc42 wt GTP: 97
  Pf gametocyte: 15
  Avidin bead fluor: 8
> CCOc1ccc(N/C(SCc2cccc([N+](=O)[O-])c2)=C(/C#N)C(N)=O)cc1
  HRas wt GTP: 99
  Rac1 wt modul: 101
  Rac1 act GTP bind: 96
  Rab7 wt GTP bind: 95
  Rab2A wt mod: 96
  GSH fluor: 14
  Cdc42 wt GTP: 99
  Pf gametocyte: -1
  Avidin bead fluor: 13

# For convenience, some entries already given.
# Each structure is followed by: HRas wt GTP	Rac1 wt modul	Rac1 act GTP bind	Rab7 wt GTP bind	Rab2A wt mod	GSH fluor	Cdc42 wt GTP	Pf gametocyte	Avidin bead fluor
COc1ccc(NC(C)=O)cc1NC(C)C(=O)Nc1cccc2ccccc12 (stereo not given)
    100	103	98	101	101	39	99	nt	12
Cn1c(C(=O)NCCC2=CCCCC2)cc2c(=O)n3ccccc3nc21
    104	105	100	104	103	13	105	-13	35
CCOC(=O)c1cc2sc(C)cc2n1CC(=O)N1CCN(C(=O)c2ccco2)CC1
    100	100	100	99	101	14	100	nt	32

# (continued)
# Each structure is followed by: HRas wt GTP	Rac1 wt modul	Rac1 act GTP bind	Rab7 wt GTP bind	Rab2A wt mod	GSH fluor	Cdc42 wt GTP	Pf gametocyte	Avidin bead fluor
COC(=O)NNC(=O)c1ccc(C)cc1
    99	98	98	97	100	11	98	3	5
Cc1ccc(NC2=C(Cl)C(=O)OC2OC(C)C)cc1 (stereo not given)
    100	102	98	108	105	11	101	-16	11
C=CCn1c(COc2ccc(Cl)cc2)nnc1SCC(=O)Nc1ccc(S(N)(=O)=O)cc1
    99	108	100	97	99	23	102	10	4
CS(=O)(=O)N1CCc2cc(C(=O)OCC(=O)c3ccccc3)ccc21
    96	94	95	94	94	40	99	-27	4
CC(C)[C@H](Nc1ccc(S(=O)(=O)N2CCOCC2)cc1[N+](=O)[O-])C(=O)OCC(=O)N(C(C)C)C(C)C
    97	103	100	98	97	6	99	9	12
COc1ccc(/C=C2\SC(=O)N(CCC(=O)Nc3ccccc3)C2=O)cc1OC
    99	101	102	98	102	10	99	nt	11
Cc1cc(C)c(S(=O)(=O)Nc2cccc(/C=C/C(=O)O)c2)c(C)c1
    99	103	98	96	97	9	97	nt	14
COC(=O)Cn1c2ccc(OC)cc2c2nc3ccccc3nc21
    99	102	99	96	102	65	102	8	7
COc1ccccc1N1C(=O)C2C(C(=O)c3ccccc3)=NN(c3ccccc3OC)C2C1=O (stereo not given)
    nt	nt	nt	nt	nt	nt	nt	11	5
Cc1cc(C(F)F)n2ncc(C(=O)NCc3ccccc3C(F)(F)F)c2n1
    99	99	97	95	96	34	98	nt	7
O=C(Nc1ccc(Cl)cc1)Nc1nnc(-c2ccncc2)s1
    102	105	100	104	98	15	109	-15	12
Cn1c(NCC(O)CO)nc2c1c(=O)n(Cc1ccc(Cl)c(Cl)c1)c(=O)n2C (stereo not given)
    102	101	99	100	103	20	101	-16	10
CSc1ccc(-c2nc(CN(C)C3CCOC3)c(C)o2)cc1 (stereo not given)
    97	99	95	98	96	15	96	nt	1
CCCCn1ccc(=O)c2c(C(F)(F)F)nccc21
    94	92	90	96	91	17	91	6	28
CCN1C(=O)C(CC(=O)Nc2ccc(OC)cc2)N(Cc2ccco2)C1=S (stereo not given)
    93	97	99	92	94	22	94	-8	11
O=C1OC(c2ccc(Br)cc2)=N/C1=C\c1ccco1
    95	96	94	102	94	9	94	-36	24
CCOC(=O)c1cc(C#N)c(N2CCOCC2)nc1-c1ccccc1
    92	97	92	94	95	16	93	-10	10
C=CCNc1ncnc2c1cnn2-c1ccc(OC)cc1
    95	95	94	94	93	12	97	-22	35
C=CCc1ccc(OCCN2CCc3ccccc3C2)c(OC)c1
    97	96	93	110	98	18	93	6	9
COc1ccc(Cn2c3ccc(OC)cc3c3nc4ccccc4nc32)cc1
    104	105	100	103	106	11	104	nt	6
C=CC[C@@H]1Cc2c(Br)ccc(Br)c2[C@@H](CC=C)N1
    95	94	94	96	94	9	94	-7	2
CC1=C(C(=O)Nc2ccccc2)C(c2ccncc2)n2nnnc2N1 (stereo not given)
    101	105	101	94	97	11	102	13	22
Cc1ccccc1NC(=O)C1CC(Cl)=CCC1C(=O)O (stereo not given)
    94	98	95	93	97	23	101	9	16
C/C(=N\NC(=O)c1ccc(NS(=O)(=O)c2cccs2)cc1)c1ccc2ccccc2c1
    97	98	95	98	96	10	97	-5	2
CC(C)c1nnc(NC(=O)CCC(=O)NCCc2ccccc2)s1
    nt	nt	nt	nt	nt	nt	nt	-11	5
Cc1ccc(Nc2nc(N)nc(CSc3nncn3C)n2)cc1
    ?	?	?	?	?	10	?	nt	20
O=C(Nc1ccc(F)cc1)Nc1nnc(-c2ccncc2)s1
    102	99	98	98	100	14	100	nt	11
O=C(c1ccccc1)N1CCn2c(nc3ccccc32)C1
    98	105	95	96	96	15	99	23	21
C/C(=N\NC(=O)c1cccnc1)c1c(O)cc(C)oc1=O
    97	100	100	98	96	7	97	-13	3
C/C=C/C=C/C(=O)OCC(=O)Nc1ccc(Cl)cc1
    96	89	90	105	93	10	90	24	11
COc1ccc(CNC(=O)C2COc3ccccc3O2)cc1 (stereo not given)
    99	100	96	100	96	22	97	nt	38
COc1ccc(OCCNC(=O)CSc2ccc(C(F)(F)F)cc2[N+](=O)[O-])cc1
    102	104	103	97	100	16	101	nt	1
CC(NS(=O)(=O)c1ccc([N+](=O)[O-])cc1)C(=O)NN (stereo not given)
    96	100	98	107	100	69	100	nt	9
COC(=O)c1ccc(N2CCC(C)CC2)c(N)c1
    100	106	100	100	101	32	103	-33	13
COc1ccc(NC(=S)Nc2cccc(C(F)(F)F)c2)c(C)c1
    98	99	94	108	99	12	93	16	5
C/C(=N\NC(=O)c1ccccc1O)c1c(O)cc(C)oc1=O
    94	96	95	95	94	49	95	6	6
C=CCn1c(CCNC(=O)c2ccccc2F)nnc1SCc1nc2ccccc2c(=O)[nH]1
    106	109	102	106	105	35	105	nt	13
COc1ccccc1CCNC(=O)c1cnn2c(C(F)F)cc(C)nc12
    103	109	102	99	98	17	105	nt	8
COc1cccc(OCCc2c(C)n[nH]c2C)c1
    97	95	93	94	95	29	97	nt	6
CCCCn1nnnc1NCc1cc(Cl)c(OC)c(OC)c1
    97	98	96	99	99	11	99	-2	10
O=S(=O)(Cc1ccccc1)N1CCn2c(nc3ccccc32)C1
    104	108	100	101	101	19	102	nt	7

# An excerpt from above, showing only Pf gametocyte, GSH fluor and Rab7 wt GTP bind.
structure,Pf gametocyte,GSH fluor,Rab7 wt GTP bind
COc1ccc(CNC(=O)C2COc3ccccc3O2)cc1 (stereo not given),nt,22,100
COc1ccc(OCCNC(=O)CSc2ccc(C(F)(F)F)cc2[N+](=O)[O-])cc1,nt,16,97
CC(NS(=O)(=O)c1ccc([N+](=O)[O-])cc1)C(=O)NN (stereo not given),nt,69,107
COC(=O)c1ccc(N2CCC(C)CC2)c(N)c1,-33,32,100
COc1ccc(NC(=S)Nc2cccc(C(F)(F)F)c2)c(C)c1,16,12,108

# Bioassay records deposited in PubChem by several laboratories.
